Assay outcomes (PubChem)
gsp agonist: qHTS for Agonist of gsp, the Etiologic Mutation Responsible for Fibrous Dysplasia/McCune-Albright Syndrome: qHTS | gsp mutant cells, cAMP HTRF, 30 min; control for the full effect not named in the record | Potency, µM (top dose mostly 76.9 µM), for the others: at the highest dose activation (cAMP increase), most hits filed as activators | hit rate 0.13% among 340,000 | AID 624287, 2012; active = well fitted activation curve with a large enough effect; inconclusive = small, poorly fitted or top-dose-only effect, or another doubt; inactive = no such curve, though single readings can be large or run the other way; cell line not stated here;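 further: phosphodiesterase inhibitor Ro 20-1724 added with compounds to block cAMP breakdown; potency means the concentration at half of the fitted maximal effect; nearly all actives have a fitted effect of over 60% in size; about a fifth of the inactives were tested at one dose only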
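Cells stably selected in G418 were plated at 2000/well, grown 16-24 hr, then given compounds in DMSO with the PDE inhibitor […] (300 uM solution added) for 30 min at 37C; cAMP was read by HTRF.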
gsp antag: qHTS for Antagonists of gsp, the Etiologic Mutation Responsible for Fibrous Dysplasia/McCune-Albright Syndrome: qHTS; AID 624288, 2012; gsp-mutant cells, cAMP HTRF, 30 min; control for the full effect not named in the record; Potency, µM (series often up to 76.9 µM), for inactives: at the highest dose activity change, negative = inhibition, usual class: inhibitors; hit rate 0.4% among 340,000; active = falling curve of any shape with a large fitted effect; inconclusive = falling curve, mostly with a smaller effect; inactive = flat or rising curve; cell line not stated here;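 further: intracellular cAMP measured with PDE inhibitor Ro 20-1724 present during compound exposure; potency means the concentration at half of the fitted maximal effect; on the % scale 0 is the no-effect control and ±100 the full control effect; nearly all actives have a fitted effect of over 65% in size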
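G418-selected cells were plated in DMEM/10% FBS for 16-24 h at 37C, then treated with compounds plus the PDE inhibitor […] (300 uM solution added) for 30 min at 37C. Intracellular cAMP was measured by HTRF after 30 min lysis at room temperature.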
TRPML1 agonist: qHTS for Agonists of the Human Mucolipin Transient Receptor Potential 1 (TRPML1) | Mucolipin-1 (Homo sapiens), Q9GZU1 | activation, % (test concentration not listed) | hit rate 0.12% among 410,000 | TRPML1-expressing cells, Ca2+ dye fluorescence, FDSS; host cell line not named in the record; reference of the full effect not given here; in the data active = activation above about 50%; inconclusive = about 30% to 50%; inactive = below about 30%; further: 0% is about no effect; the text of the record puts the active cut at 80%
Target sequence (Q9GZU1 whole entry, looked up): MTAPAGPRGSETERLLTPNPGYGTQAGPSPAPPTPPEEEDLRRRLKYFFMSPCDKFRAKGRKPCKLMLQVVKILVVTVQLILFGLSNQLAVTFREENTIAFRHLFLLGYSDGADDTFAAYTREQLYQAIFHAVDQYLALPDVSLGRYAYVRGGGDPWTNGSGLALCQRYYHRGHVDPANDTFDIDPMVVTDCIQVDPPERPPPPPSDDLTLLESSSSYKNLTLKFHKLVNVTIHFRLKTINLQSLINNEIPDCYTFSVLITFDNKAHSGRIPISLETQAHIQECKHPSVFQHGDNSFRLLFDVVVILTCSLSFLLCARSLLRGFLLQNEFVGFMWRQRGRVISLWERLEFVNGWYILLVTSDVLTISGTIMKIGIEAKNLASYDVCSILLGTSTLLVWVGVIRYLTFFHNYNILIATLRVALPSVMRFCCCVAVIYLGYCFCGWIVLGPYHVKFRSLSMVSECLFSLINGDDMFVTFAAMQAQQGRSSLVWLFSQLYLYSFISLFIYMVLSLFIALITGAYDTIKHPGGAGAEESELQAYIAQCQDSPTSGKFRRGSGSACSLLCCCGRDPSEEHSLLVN
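Tetracycline-induced TRPML1-DL cells are seeded and incubated overnight before loading with a no-wash Ca2+ dye and quencher. Agonist activity is taken from the 110 s fluorescence read following compound pin-transfer on an FDSS, before EC80 54-4 challenge.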
Menin MLL FP FL: qHTS Assay for Inhibitors Targeting the Menin-MLL Interaction in MLL Related Leukemias: Competition With Fluorescein Labeled MLL-derived Peptide; AID 1766, 2009; FP activity change, % at 61.4 µM; Fluorescence polarization, fluorescein-MLL peptide displacement from menin; 290,000 tested, under 10 active; inconclusive = falling polarisation curve, or a change in total fluorescence; inactive = total fluorescence flat and polarisation flat or rising; no compound was filed as active; the % refers to the polarisation; negative = inhibition;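 further: % of control where 0% means no effect; inhibitors lower the polarisation; unlabelled MLL peptide was the positive control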
TRPML1 inh: qHTS for Inhibitors of the Human Mucolipin Transient Receptor Potential 1 (TRPML1); Mucolipin-1 (Homo sapiens), Q9GZU1; TRPML1-inducible cells, Ca2+ dye fluorescence, FDSS; stronger effect = lower value; inhibition of EC80 agonist-evoked calcium signal; activity change, negative = inhibition, % (test concentration not listed); hit rate 0.02% among 390,000; in the data active means activity change below about -50%; inconclusive means about -30% to -50%; inactive means above about -30%;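 further: stimulus is agonist 54-4 at its EC80 concentration; on the % scale 0 is the no-effect control and ±100 the full control effect; compound concentration not given in the record; the text of the record puts the active cut at -80%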
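Tet-induced TRPML1-DL cells loaded with Ca8 no-wash calcium dye were read kinetically on FDSS. Compound addition was followed by EC80 agonist 54-4 (4 uM final); inhibition was read over 110 s.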
ClpP mod: qHTS Assay for Activators of ClpP | ATP-dependent Clp protease proteolytic subunit (Bacillus subtilis (strain 168)), P80244 | purified B. subtilis ClpP, FRET peptide cleavage, 20 min | hit rate 1.9% among 340,000 | Potency, µM (top dose mostly 57.5 µM), for inactives: at the highest dose activity change, negative = active; active = well fitted falling curve with a large enough effect; inconclusive = small, poorly fitted or top-dose-only effect; inactive = no such curve, though single readings can be large or run the other way; further: potency means the concentration at half of the fitted maximal effect; the source files actives as falling curves though it sought activators and does not explain the sign; nearly all actives have a fitted effect of over 65% in size; many hits overshoot -100%
Target sequence (P80244 whole entry, looked up): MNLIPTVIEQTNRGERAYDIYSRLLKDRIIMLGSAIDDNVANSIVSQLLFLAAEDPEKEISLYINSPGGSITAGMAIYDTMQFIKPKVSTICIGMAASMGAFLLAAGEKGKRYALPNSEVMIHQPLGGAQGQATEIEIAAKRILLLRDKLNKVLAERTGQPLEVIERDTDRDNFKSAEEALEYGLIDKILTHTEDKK
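ClpP 10 microg/mL final, pH 8 Tris/KCl buffer with BSA, glycerol, Tween-20; compound pinned in; FRET-FV substrate; RT 20 min; Ex320/Em430; ΔFRET vs ADEP 5.8 microM, DMSO, no enzyme.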
An asterisk follows results filed as active; ? = inconclusive; . = not tested or not shown; & = joins results of further samples; [ ] = dose if it differs, or a comment.

Sequence of screens: TRPML1 agonist, gsp agonist, gsp antag, TRPML1 inh, Menin MLL FP FL, ClpP mod
> O=C(C[C@H]1C(=O)N(c2ccc(F)c(F)c2)C[C@@H]1Cc1ccccc1)Nc1ccccc1
  -0.1&-0.5, -4%, 11%, -14, -1.7, -0.7%&0.0%
> CCc1cc[n+](/C(C(=S)Nc2cccc(C)c2)=C(/[O-])c2ccc(C)c([N+](=O)[O-])c2)cc1
  -0.8, 6%, -22%, 0, 3.8, .
> Cn1ccnc1SCc1cn2ccccc2n1
  -0.5, 11%, 10%, -1, -0.5, ?
> Cc1ccc(-n2nc(C)c3c(C)cc(=O)n(CC(=O)NC(C)C)c32)cc1
  0.3, ., ., 0, ., -4.5%
> CC(C)(C)C(=O)Cn1ncc(NC2CC2)c(Br)c1=O
  -0.1, ?, 9%, 11, 1.4, -10%
> CCOC(=O)N1CCC(NC(=O)CS(=O)Cc2nc(-c3ccccc3C)oc2C)CC1 (stereo unspecified)
  1.1, ?, -7%, -26, ., -4.1%
> COc1cc(C)c(C(=O)Oc2cc(C)c(C(=O)O)c(O)c2C)c(OC)c1C
  ., ., -18%, ., -1.8&2.8, -15%
> CCOC(=O)C(C)/C(C)=N/NC(=O)c1cc2ccccc2cc1O (stereo unspecified)
  1.4, 22%, 5%, -15, 29, -0.7%
> O=C(Nc1nnc(COc2ccc(Cl)cc2)s1)c1cccs1
  -1.2, -29%, 1%, -12, -0.2, -2.2%
> O=C(Cc1ccccc1Cl)N1CCOCC1
  0.9, ?, 5%, 15, -0.4, -2.4%
> Cc1nc(Cc2nnc(SCC(=O)N3c4ccccc4NC(=O)C3(C)C)o2)cs1
  -0.3, 31%, ., 6, ., -2.2%
> CC1CC(N(C(=O)c2ccc(Cl)cc2)c2ccccc2)c2ccccc2N1C(=O)c1ccco1 (stereo unspecified)
  -0.7, -30%, ?, 21, 1.3, -0.9%
> CCc1ccc(N2CC(C(=O)NC3=NCCS3)CC2=O)cc1 (stereo unspecified)
  4.5, 1%, 5%, 41, 4.0, -0.9%
> CCCCCCCNC(=O)C1(CC2CC(c3ccc(Cl)cc3)=NO2)CCN(C(=O)c2ccccc2)CC1 (stereo unspecified)
  0.4, ., -19%, -11, 1.5, 1.0%
> CCCCn1cnc2c1c(=O)[nH]c(=O)n2CCCC
  -0.5, 17%, -1%, 10, ?, -2.5%
> COc1ccc2[nH]c(C(=O)Nc3ccccc3Cl)cc2c1
  -0.5, 24%, -1%, -10, -2.1, -25%
> CCC(C(=O)NC(C)(C)C)N(C(=O)Cn1nnc(-c2ccccc2F)n1)c1cnc2ccccc2c1 (stereo unspecified)
  0.9, -116%[inhibitor], -5%, 22, 3.7, 0.3%
> CCOC(=O)c1c(-c2ccccc2)oc2ccc(OCC(=O)NN)cc12
  0.7, 11%, -15%, 2, -0.7, 3.6%
> CCCCn1c(Nc2ccc(OC)cc2)nc2ccccc21
  -1.3, -19%, -7%, 8, -1.2, 0.2%
> CC12COC3(C(=O)Nc4cccnc4)CC1CCC32C (stereo unspecified)
  -0.3, -9%, -19%, -5, 1.8, -0.6%
> Cc1nc(Cl)sc1C(=O)Nc1ccc(Cl)cc1
  -0.6, -4%[15.4 µM], 4%, 8, -1.6, 28µM*
> CCOC(=O)N1CCN(C(=O)c2cc3cc(Cl)ccc3[nH]2)CC1
  ., -17%, 50µM*, ., 8.7, -6.5%
> CCCN1C(C(=O)c2ccccc2)=C(OC(=O)C(C)(C)C)c2ccccc2S1(=O)=O
  1.5, ., ., 2, ., 0.2%
> CCCC(O)(c1ccc(OC)cc1)C(CN1CCOCC1)c1ccc(Cl)cc1 (stereo unspecified)
  0.0, -8%, ?, 8, -3.4, 0.9%
> COc1ccc2c(Cl)c(C(=O)N/N=C/c3c(C)[nH]c4ccccc34)sc2c1
  1.2, 24%, -2%, 5, 8.0, -3.8%
> COc1ccc(C(=O)COc2nc(C)cc(C)c2C#N)cc1
  0.6, -17%, -17%, 45, 3.0, -0.7%
> Cc1ccccc1C(=O)Nc1ccccc1C(=O)N1CCC(C)CC1
  54*, -6%, 1%, -12, ., .
> C=CCC[C@H](Cc1ccc(F)cc1)C(=O)OC[C@H](Cc1c[nH]c2ccccc12)NC(=O)[C@@H](CC=C)CC(=O)N(CCO)Cc1ccccc1
  -0.6, ?, -18%, -12, ., -3.4%
> O=C(C(Cl)c1ccccc1)N1CCCC1 (stereo unspecified)
  0.9, 8%[15.4 µM], 5%, 30, 5.8, .
> CCN(CC)Cc1c(O)ccc2occ(C(=O)c3ccc(OC)cc3)c12
  0.3, 1%, -1%, 15, 2.8, -2.0%
> O=C(Nc1nncs1)c1ccc(Br)c(S(=O)(=O)N2CCCC2)c1
  -0.2, -9%, ?, 5, 3.5, 32µM*
> CC(OC(=O)CC1Sc2ccccc2NC1=O)C(=O)N(C)Cc1ccccc1 (stereo unspecified)
  1.7, -2%[15.4 µM], -5%, 13, ., .
> COc1cc(/C=C/C(=O)/C=C(O)/C=C/c2ccc(O)c(OC)c2)ccc1O
  ?, ., -22%, 2, ?, 5.2%
> CC(C)CCN1CCC(n2nccc2NC(=O)c2ccc3c(c2)OCO3)CC1
  -0.5, 6%, 3%, 3, -1.1, .
> CCN(c1ccccc1)S(=O)(=O)c1ccc(OC)c(NC(=O)CN(C)C)c1
  2.1, -1%, -2%, -3, 1.3, -3.4%
> Cc1ccc(N2C(=N)/C(=C3/Nc4ccccc4S3)C(c3ccccc3)C2=O)cc1 (stereo unspecified)
  0.9, 9%, 8%, 20, -26, -1.4%
> COc1cc(/C=N/N2C(=O)C3C4C=CC(CC4)C3C2=O)ccc1O (stereo unspecified)
  -0.4, -74%[inhibitor], -9%, -12, -0.8, .
> Cc1cccc(/C=C2/SC(=O)N(Cc3ccccc3Cl)C2=O)n1
  1.2, -9%, 6%, 20, 8.4, 1.1%
> COC(=O)c1cccc(NC(=S)Nc2cc(Cl)ccc2OC)c1
  -0.3, 0%[15.4 µM], ., 10, 0.0, .
> COc1cccc(CNC(=O)C(=O)Nc2c3c(nn2-c2ccccc2)CSC3)c1
  1.3, ., ., 15, ., -0.8%
> COc1ccc(S(=O)(=O)N(CC(=O)Nc2ccc3c(c2)OCO3)c2ccccc2OC)cc1
  -0.3, 10%, ?, -12, 0.6, -1.4%
> COc1cc(NC(=O)CSc2cc(=O)n(C)c3ccccc23)cc(OC)c1OC
  -0.6, ., ., 26, ., -6.5%
> CCCCNC(=O)CC(NS(=O)(=O)c1ccc(C)cc1)c1ccco1 (stereo unspecified)
  1.0, 1%, 5%, 20, 1.0, -4.8%
> O=C1NC[C@H](Cc2ccccc2)N(C[C@@H]2CCCN2C[C@H](Cc2ccccc2)N2C[C@H](Cc3ccccc3)N(CC3CCCCC3)C(=O)C2=O)C1=O
  -0.1, ., ., -9, ., 1.3%
> Cc1ccc(NC(=O)C2=CCN(S(=O)(=O)c3ccc(F)cc3)CC2)c(C)c1
  0.5, -32%[inhibitor], 6%, -19, 0.4, 1.1%
> O=C(CNC(=O)c1n[nH]c2ccccc12)Nc1ccc(F)c(F)c1F
  1.8, -3%, -9%, -19, ., -22%
> CC1(C)C2CCC1(CS(=O)(=O)N1CCC(C(N)=O)CC1)C(=O)C2 (stereo unspecified)
  -0.2, -6%, 8%, 6, ., 1.5%
> COc1ccc(-c2ccc(C(=O)NCC3CC3)c3occc23)c(C)c1
  3.7, ., ., 62, ., 4.2%
> Cc1ccc(NC(=O)Cn2c(=O)n(Cc3ccco3)c(=N)c3c4c(sc32)COC(C)(C)C4)cc1
  1.3, -79%[inhibitor], -9%, -8, 10, -3.0%
> Cc1cc(SC(C)C(=O)Nc2c(C)n(C)n(-c3ccccc3)c2=O)nc2ccccc12 (stereo unspecified)
  0.1, 28%, 8%, 28, 5.7, -1.5%

New compounds follow.
Sequence of screens: TRPML1 agonist, gsp agonist, gsp antag, TRPML1 inh, Menin MLL FP FL, ClpP mod
> CCOC(=O)Nc1ccc2c(CN3CCC(C(=O)OC)CC3)cc(=O)oc2c1
  -0.5, 16%, -6%, -11, 8.9, 4.4%
> COc1cc(-c2nnc(NC(=O)CCS(=O)(=O)c3ccccc3)o2)cc(OC)c1OC
  0.0, 2%[15.4 µM], -9%, 8, ., -3.1%
> CCCN1CCC(=O)N([C@H](CSc2ccc(OC)cc2)CC(C)C)CC1
  0.2, ., 5%, 8, 0.1, -5.9%
> COc1ccc(N(CC(=O)Nc2ccc(S(=O)(=O)N3CCOCC3)cc2)S(=O)(=O)c2ccccc2)cc1
  -0.8, ?, -29%, 22, 0.2, 1.6%
> CCOc1ccc(CNC(=O)Cn2nc(C)n3nc(-c4ccccc4)cc3c2=O)cc1
  1.3, 24%, -18%, 3, ., 1.6%
> Cc1ccc(C(C)C)c(OCC(=O)NC2CCN(C)CC2)c1
  0.6, 0%, 8%, 27, ., -1.1%
> COc1cccc(CNC(=O)c2cccc(S(=O)(=O)N3CCN(c4ccc(F)cc4)CC3)c2)c1
  0.1, 26%[15.4 µM], -4%, 12, ., -0.3%
> CC(=O)C(Sc1nc(N(C)C)nc(N(C)C)n1)C(=O)Nc1ccccc1 (stereo unspecified)
  -0.5, 7%[15.4 µM], -15%, 11, 4.3, .
> O=C(Nc1nc2nc(-c3ccccc3)cc(-c3ccccc3)n2n1)c1ccco1
  0.0, 22%, -24%, -12, 2.4, 7.9µM*
> Cc1ccc(S(=O)(=O)c2nc(S(C)(=O)=O)sc2N2CCOCC2)cc1
  0.0, 0%, -10%, 58, ., 0.7%
> O=C(O)CCC(=O)c1ccc2sc3ccccc3c2c1
  0.6, 7%, -15%, 28, ., ?
> O=C(Nc1cccnc1)c1ccc(F)cc1
  -0.5, -13%, 10%, -2, -1.8, 0.2%
> COC(=O)c1cc(NS(=O)(=O)c2ccc(NC(C)=O)cc2)ccc1Cl
  0.6, -8%[15.4 µM], 1%, -1, 1.6, .
> CCN(CC(=O)NCCCN1CCOCC1)S(=O)(=O)c1ccc(Cl)cc1
  -1.3, -1%[15.4 µM], -3%, 1, -1.0, 1.1%
> O=C(NNC(=O)c1csc(N2CCOCC2)n1)c1cccnc1
  -0.8, -8%, 11%, 15, ., 1.5%

A few values from the list.
TRPML1 inh result of COC(=O)c1cc(NS(=O)(=O)c2ccc(NC(C)=O)cc2)ccc1Cl = -1
ClpP mod result of CCN(CC(=O)NCCCN1CCOCC1)S(=O)(=O)c1ccc(Cl)cc1 = 1.1%
